Source: PubChem BioAssay (National Center for Advancing Translational Sciences (NCATS))
Vaccinia mCherry = qHTS for Stage-Specific Inhibitors of Vaccinia Orthopoxvirus: mCherry Reporter Primary qHTS; AID 720579, 2013; 0.63% of 310,000 active; Vaccinia virus mCherry reporter infection, fluorescence; about a quarter of the inactives have no number; Potency, µM (highest dose often 36.5 µM), inactives show at the highest dose activity change, negative = inhibition, actives largely listed as inhibitors; active = well fitted inhibition curve with a large enough effect; inconclusive = small, poorly fitted or top-dose-only effect; inactive = no such curve, though single readings can be large or run the other way; tested in A549 cells; also: nearly all actives have a fitted effect of over 35% in size; inactives centre near -10
VACV Venus inh = qHTS for Stage-Specific Inhibitors of Vaccinia Orthopoxvirus: Venus Reporter Primary qHTS; Vaccinia virus Venus reporter expression, fluorescence; Potency, µM (series often up to 36.5 µM), for the others: at the highest dose activity change, negative = inhibition, hits mostly inhibitors; 0.46% of 330,000 active; AID 720580, 2013; active means well fitted inhibition curve with a large enough effect; inconclusive means small, poorly fitted or top-dose-only effect; inactive means no such curve, though single readings can be large or run the other way; tested in A549 cells; also: nearly all actives have a fitted effect of over 30% in size; inactives centre near -10
Active calls of the source: *; i = inactive; u = inconclusive; x = no result given; & = joins results of further samples; [ ] = another dose, or the depositor's remark. % is scaled to controls: 0 for no effect and ±100 for the full control effect; potency is read from the fitted curve at half-maximal effect.

The opening 17 entries as a preview:
item	compound	Vaccinia mCherry	VACV Venus inh
1	Cc1cccc(-n2c(N)cc(=O)nc2SCC(=O)Nc2ccccc2)c1	x	-5%
2	Cc1c(N2C(=O)SC(CC(=O)O)C2=O)c(=O)n(-c2ccccc2)n1C (stereo not given)	-8%	-7%
3	CSc1ccc(NC(=O)Nc2ccc(C(=O)NCC(=O)O)cc2)cc1	i	-4%
4	COc1ccc(CNC(=O)C[C@H]2C[C@H](C(=O)N3CCOCC3)[C@@]3(C)c4[nH]c5cc(-c6ccco6)ccc5c4CCN3C2=O)cc1OC	u	-29%
5	COc1cccc(NC(=O)c2oc3ccc(S(=O)(=O)N4CCOCC4)cc3c2C)c1	-16%&-29%	-12%&-20%
6	Cc1ccc(C(=O)N/C(=C\c2cn(-c3ccccc3)nc2-c2ccccc2)C(=O)N2CCOCC2)cc1	i	-8%
7	O=C(Cn1nc2ccccc2n1)N/N=C/c1cc([N+](=O)[O-])ccc1O	-2%	-19%
8	Cc1ccc(Cl)cc1-c1cc(C(=O)N2CCc3ccccc3C2)[nH]n1	i	-8%
9	CCC(C)NC(=O)C1CCN(S(=O)(=O)c2cccnc2)CC1 (stereo not given)	x	13%
10	CO[C@@]1(NC(=O)C2SC(=C(C(N)=O)C(=O)O)S2)C(=O)N2C(C(=O)O)=C(CSc3nnnn3C)CS[C@@H]21 (stereo not given in full)	i	-11%
11	CCN(C(=O)c1ccc2c(=O)n3c(nc2c1)CCCCC3)c1ccc(F)cc1	-2%	-14%
12	C=CCCN(C(C(=O)OC)C(C)C)S(=O)(=O)c1ccccc1Br (stereo not given)	u	-18%
13	Cc1c(NS(=O)(=O)c2cccc(C(=O)N3CCCC3)c2)c(=O)n(-c2ccccc2)n1C	-11%	-6%
14	Cc1cc(C)cc(-n2c(SCC(=O)Nc3cccc(S(=O)(=O)NC4=NCCCCC4)c3)nc3ccccc3c2=O)c1	-2%	-16%
15	CC(C)C(NC(=O)CCN1C(=O)c2ccccc2C1=O)c1ccccc1 (stereo not given)	-20%	u
16	Fc1cccc2sc(Nc3nnc(-c4ccco4)o3)nc12	u	u
17	O=C(Nc1ccccc1)N1CCCC(c2nc(-c3ccc(F)cc3)no2)C1 (stereo not given)	-4%	-25%

The list itself, from the start:
item	compound	Vaccinia mCherry	VACV Venus inh
1	Cc1cccc(-n2c(N)cc(=O)nc2SCC(=O)Nc2ccccc2)c1	x	-5%
2	Cc1c(N2C(=O)SC(CC(=O)O)C2=O)c(=O)n(-c2ccccc2)n1C (stereo not given)	-8%	-7%
3	CSc1ccc(NC(=O)Nc2ccc(C(=O)NCC(=O)O)cc2)cc1	i	-4%
4	COc1ccc(CNC(=O)C[C@H]2C[C@H](C(=O)N3CCOCC3)[C@@]3(C)c4[nH]c5cc(-c6ccco6)ccc5c4CCN3C2=O)cc1OC	u	-29%
5	COc1cccc(NC(=O)c2oc3ccc(S(=O)(=O)N4CCOCC4)cc3c2C)c1	-16%&-29%	-12%&-20%
6	Cc1ccc(C(=O)N/C(=C\c2cn(-c3ccccc3)nc2-c2ccccc2)C(=O)N2CCOCC2)cc1	i	-8%
7	O=C(Cn1nc2ccccc2n1)N/N=C/c1cc([N+](=O)[O-])ccc1O	-2%	-19%
8	Cc1ccc(Cl)cc1-c1cc(C(=O)N2CCc3ccccc3C2)[nH]n1	i	-8%
9	CCC(C)NC(=O)C1CCN(S(=O)(=O)c2cccnc2)CC1 (stereo not given)	x	13%
10	CO[C@@]1(NC(=O)C2SC(=C(C(N)=O)C(=O)O)S2)C(=O)N2C(C(=O)O)=C(CSc3nnnn3C)CS[C@@H]21 (stereo not given in full)	i	-11%
11	CCN(C(=O)c1ccc2c(=O)n3c(nc2c1)CCCCC3)c1ccc(F)cc1	-2%	-14%
12	C=CCCN(C(C(=O)OC)C(C)C)S(=O)(=O)c1ccccc1Br (stereo not given)	u	-18%

Continued.
item	compound	Vaccinia mCherry	VACV Venus inh
13	Cc1c(NS(=O)(=O)c2cccc(C(=O)N3CCCC3)c2)c(=O)n(-c2ccccc2)n1C	-11%	-6%
14	Cc1cc(C)cc(-n2c(SCC(=O)Nc3cccc(S(=O)(=O)NC4=NCCCCC4)c3)nc3ccccc3c2=O)c1	-2%	-16%
15	CC(C)C(NC(=O)CCN1C(=O)c2ccccc2C1=O)c1ccccc1 (stereo not given)	-20%	u
16	Fc1cccc2sc(Nc3nnc(-c4ccco4)o3)nc12	u	u
17	O=C(Nc1ccccc1)N1CCCC(c2nc(-c3ccc(F)cc3)no2)C1 (stereo not given)	-4%	-25%
18	COc1ccc(/C=C(\NC(=O)c2ccc(C)cc2)C(=O)NCCCn2ccnc2)cc1	i	0%
19	COc1ccc(-c2nc(S(=O)(=O)c3ccccc3)c(N3CCN(C)CC3)o2)cc1	u	-4%
20	Cc1cc(N/N=C/c2ccc(Cl)cc2)nc(NCc2ccccc2)n1	u	-11%
21	COC(=O)c1sc2ccccc2c1NC(=O)c1ccc(S(=O)(=O)N2CCCC(C)C2)cc1 (stereo not given)	-9%	-4%
22	Nc1nnc(SCC(=O)Nc2ccccc2C(F)(F)F)s1	4%	-2%
23	O=C(Cn1nnc2ccccc21)c1ccccc1	-13%	-4%
24	O=C(COc1ccc(Cl)cc1)NNC(=O)CSc1nncs1	i	-9%

Other compounds follow.
item	compound	Vaccinia mCherry	VACV Venus inh
25	CN(Cc1ccsc1)C(=O)CCc1nnc(Cc2c[nH]c3ccccc23)o1	-3%	-2%
26	CC(=O)Nc1ccc(-c2ccnc3c2CC(C)(C(=O)NCCN(C)C)O3)cc1 (stereo not given)	-8%	-2%
27	O=C(COC(=O)/C=C/c1ccc([N+](=O)[O-])cc1)NC(c1ccccc1)c1ccccc1	-10%	-8%
28	CCOC(=O)CN(Cc1ccccc1)C(C(=O)NC1CCCCC1)c1ccccc1 (stereo not given)	-5%	-10%
29	CC1=NN(C(N)=S)C(=O)C1N=Nc1cccc(C(=O)O)c1 (stereo not given)	i	-4%
30	Cc1ccc(C(C)NC(=O)c2ccco2)cc1C (stereo not given)	-14%	-1%
31	O=C(O)CSc1nc2c(c(C(F)(F)F)n1)CCc1ccccc1-2	-11%	-12%
32	Cc1ccc(C)c(NC(=O)CSc2ncc3c(n2)-c2cc(Cl)ccc2N(Cc2ccccc2F)S3(=O)=O)c1	-4%	9%
33	Cn1cc(C(=O)N2CCN(c3cccc(Cl)c3)CC2)c(=O)c2cc(S(=O)(=O)N3CCOCC3)ccc21	-26%	-26%
34	COc1ccc(OCC(=O)OC2CCN(C)CC2)cc1	x	-9%
35	CC1COC(c2cccn2Cc2ccccc2Cl)=N1 (stereo not given)	-15%	-5%
36	COc1ccc(CNC(=O)c2c([S-])n(-c3ccc(C)cc3)c3cccc[n+]23)cc1	-9%	-10%

Next structures follow:
item	compound	Vaccinia mCherry	VACV Venus inh
37	COc1ccc2nc(/C=N/NC(=O)CCCCCNC(=O)OC(C)(C)C)ccc2c1	-29%	-15%
38	O=C(NCc1cccs1)C(=O)NCC1OCCCN1S(=O)(=O)c1ccccc1 (stereo not given)	i	-6%
39	CCO[C@@H]1OC(C(=O)N2CCCCCCC2)=C[C@H](c2cn(C(C)=O)c3ccccc23)[C@H]1CCCO	-11%	-27%
40	Cn1cnnc1SCC(=O)Nc1cc(C(F)(F)F)ccc1N1CCOCC1	-8%	-2%
41	Cc1ccc(-c2cnc(C(O)c3ccc(Cl)c(F)c3)[nH]2)cc1 (stereo not given)	u	-19%
42	CCOC(=O)/C(C#N)=C/c1c[nH]c2ccccc12	-25%	-29%
43	O=C(Nc1ccc(NC(=O)C2CCCCC2)cn1)c1ccco1	-4%	-14%
44	NC(=O)c1nsc(C(=O)N(CCc2ccccc2)C(C(=O)NC2CCCC2)c2ccco2)c1N (stereo not given)	-3%	-15%
45	NS(=O)(=O)c1ccc(CCNC(=O)C2CCN(S(=O)(=O)c3c(Cl)cccc3Cl)CC2)cc1	1%	-2%
46	COc1cc(NC(=O)COC(=O)/C=C/c2ccc(OC)c(OC)c2)cc(OC)c1	-5%	-14%
47	CC(=O)Nc1cccc(-c2ccnc3c2CC(C)(C(=O)Nc2ccc4c(c2)OCO4)O3)c1 (stereo not given)	-12%	u
48	COc1ccc(-c2cc(=O)c3cc(F)ccc3[nH]2)cc1	14%	-10%

Next part.
item	compound	Vaccinia mCherry	VACV Venus inh
49	COc1ccc(NS(=O)(=O)c2cccc(C(=O)NNC(=O)c3ccc(Br)o3)c2)cc1	u	u
50	CCCCCCSc1cccc(-c2nc3ccc(Cl)cn3c2NCc2ccccc2)c1	-3%	3%&-2%
51	CCOC(=O)c1c(C)n(-c2ccccc2)c2ccc(OC(=O)COc3ccc(Cl)cc3)cc12	-9%	6%
52	Cc1cccc(NS(=O)(=O)c2cccc(C(=O)N3CCCCCC3)c2)c1	-26%	-16%
53	CCc1nnc(SCc2ccc(C(=O)OC)o2)n1N	x	-12%
54	Cc1ccc2nc(-c3cccc(Br)c3)c(CC3CCCCC3)n2c1	8%	-15%
55	CC(C)(C)c1ccc(C(=O)Nc2c3c(nn2C(C)(C)C)CS(=O)(=O)C3)cc1	u	-8%
56	COc1cc2nc(CN3CCN(C(C)=O)CC3)[nH]c(=O)c2cc1OC	1%	7%
57	COc1ccc(NCN2C(=O)CCC2=O)cc1	-9%	3%
58	CC(C)C(C)NC(=O)CN1C(=O)NC2(CCc3ccccc32)C1=O (stereo not given)	-13%	-2%
59	Cc1cnc2nc(-c3ccccc3)ccc2c1	i	-11%
60	Fc1ccc(-c2nc3ccc(Cl)cn3c2Cc2ccccc2C(F)(F)F)cc1	i	-7%

More entries.
item	compound	Vaccinia mCherry	VACV Venus inh
61	O=C(O)C1CCCCC1C(=O)Nc1ccc(S(=O)(=O)N2CCOCC2)cc1 (stereo not given)	-2%	-7%
62	Cc1ccc(-n2c(O)c(C=Nc3ccccc3N)c(=O)[nH]c2=O)cc1C	x	-15%
63	CC(=O)Nc1ccc(/C=C/c2nc3ccccc3s2)cc1	20%	35%[activator]
64	CCN(CC(=O)Nc1ccccc1C(F)(F)F)C(=O)c1ccc(N2C(=O)CCC2=O)cc1	i	-1%
65	C=CCOc1c(Br)cc(CNn2c(C)n[nH]c2=S)cc1OC	-1%	-15%
66	OCC[C@@H]1C[C@H](O)[C@@H](O)[C@]2(Cc3ccccc3CCO2)O1	i	-4%
67	O=C(CSC1=NCCS1)Nc1ccc(F)cc1	i	-13%
68	Cc1ccccc1OCC(=O)OCC(=O)c1ccc(OC(=O)c2ccccc2)cc1	-7%	-4%
69	COc1ccc(/C=C/C(=O)NCC2COc3ccccc3O2)c(OC)c1 (stereo not given)	-11%	-3%
70	COCCN(C(=O)CSc1ncn[nH]1)c1c(N)n(Cc2ccccc2)c(=O)[nH]c1=O	-13%	2%
71	CCO[C@H]1OC(C(=O)N2CCN(C)CC2)=C[C@@H](C2CC2)[C@@H]1CCCO	-8%	-6%
72	CC(=O)NCC(c1ccc2c(c1)OCO2)N1CCN(c2ccccc2)CC1 (stereo not given)	-1%	2%

(continued)
item	compound	Vaccinia mCherry	VACV Venus inh
73	Cc1ccc(-c2[nH]ncc2CNC(C)c2ccccc2)cc1 (stereo not given)	-9%	-20%
74	CC1(C)CC(=O)C=C(NCc2ccco2)C1	16%	5%
75	CCCc1cc(=O)[nH]c2nnc(SCC(=O)Nc3ccc(C(C)=O)cc3)n12	-12%	-10%
76	COCCn1nnnc1C(c1ccccn1)N1CCN(c2cc(Cl)ccc2C)CC1 (stereo not given)	i	-8%
77	O=C1Nc2ccccc2N=C(c2ccccc2)C1N(Cc1ccc(F)cc1)C(=O)c1cccnc1 (stereo not given)	19%	9%
78	COc1ccc(CC(=O)Nc2nnc(C(C)C)s2)cc1	i	-9%
79	COc1ccc(C2=NN(CN3C(=O)C(=O)c4ccccc43)C(c3ccc(Br)cc3)C2)cc1 (stereo not given)	i	-5%
80	COc1ccccc1S(=O)(=O)N1CCN(S(=O)(=O)c2ccccc2C#N)CC1	-12%	-12%
81	Cc1ccc(S(=O)(=O)NC2(C(F)(F)F)C(=O)Nc3c2c(=O)n(C)c(=O)n3C)cc1 (stereo not given)	-15%	-6%
82	CC1(CC(=O)N/N=C/c2ccc(-c3cccc(C(F)(F)F)c3)o2)OCCO1	-1%	-20%
83	Cc1cccc(Cc2cccc(C)c2O)c1O	-17%	-1%
84	Cc1cc(=O)[nH]c(SCC(=O)N2C(C)CCCC2C)n1 (stereo not given)	-3%	18%
85	COc1ccc(Cc2noc(COc3ccc(Cl)cc3)n2)cc1	-7%	-11%
